# Bfl-1 A1 inh = inhibitors of the anti-apoptotic protein A1, read as caspase activation; MEF A1-2A-BIM cells, Caspase-Glo 3/7 luminescence, 3 h; percent of clofoctol response, vehicle zero; caspase activation, % (test concentration not listed); hit rate 0.066% among 330,000;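 active = over half of replicate activation scores above 10%, or exactly half above 10 with the replicate mean above 10; inconclusive = replicate mean below 10 yet half the replicates above 10; inactive = over half of replicates below 10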;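 note: wells of about 30 µL received 50 nL stock; many hits fall short of the cut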
# Vif TR-FRET = inhibitors of Vif binding to APOBEC3G peptide, primary screen, biochemical, TR-FRET, GST-Vif 1-94, biotin-A3G peptide, dose response retest (AID 1117319); inhibition, %; hits with a dose series show IC50 in µM; TR-FRET GST-Vif / biotin-A3G peptide binding; higher % means a stronger effect; test concentration not given here; strong numbers were not always called active; hit rate 0.57% among 260,000;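 active = above the screen mean plus three standard deviations and confirmed in dose response; inconclusive = results disagree or hit not tested in dose response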;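 note: Vif residues 1-94 fused to GST binding biotinylated APOBEC3G peptide 110-148; 0% = full assay without inhibitor and 100% = GST in place of GST-Vif; retest series ran down from 100 µM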
# HNF4A DNA FP = change in binding of human HNF4 alpha to DNA; P41235; HNF4a-FITC DNA binding, fluorescence polarization, 1 h; activity change, % at 10 µM; hit rate 0.3% among 360,000; AID 1224865; in the data active = activity change above about 30%, passing the limit was not always enough;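 note: controls were the assay level and a saturating level of protein; the project sought stronger binding though the title names inhibitors; some compounds called inactive have numbers as strong as hits; positive values seem to mean higher polarization but the record does not say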
# Target sequence (P41235 whole entry, looked up): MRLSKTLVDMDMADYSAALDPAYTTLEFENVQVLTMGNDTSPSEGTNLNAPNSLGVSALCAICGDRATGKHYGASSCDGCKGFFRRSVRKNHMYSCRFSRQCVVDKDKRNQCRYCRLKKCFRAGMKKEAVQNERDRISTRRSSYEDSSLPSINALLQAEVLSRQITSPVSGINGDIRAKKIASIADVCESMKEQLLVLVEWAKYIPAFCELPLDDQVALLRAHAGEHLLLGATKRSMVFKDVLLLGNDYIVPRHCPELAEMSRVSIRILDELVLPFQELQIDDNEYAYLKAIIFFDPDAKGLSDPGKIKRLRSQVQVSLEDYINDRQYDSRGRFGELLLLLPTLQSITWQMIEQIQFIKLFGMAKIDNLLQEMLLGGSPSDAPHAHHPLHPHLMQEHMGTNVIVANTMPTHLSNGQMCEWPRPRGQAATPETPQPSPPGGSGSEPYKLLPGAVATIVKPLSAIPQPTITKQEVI
# Beta2AR agonist = human beta-2 adrenergic receptor agonism by FAP | response, % (concentration not given with the values) | P07550 | hit rate 0.43% among 340,000 | Am2.2-beta2AR cells, FAP receptor internalization, flow cytometry; reference of the scale not given here | AID 504454;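 active = response above a set limit, near 3 SD of response in nonfluorescent compounds, cut at about 42% in these data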;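 note: stock transfer was 100 nL into about 11 µL; a reference agonist was the positive control; negative values mostly stem from fluorescent compounds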
# Target sequence (P07550 whole entry, looked up): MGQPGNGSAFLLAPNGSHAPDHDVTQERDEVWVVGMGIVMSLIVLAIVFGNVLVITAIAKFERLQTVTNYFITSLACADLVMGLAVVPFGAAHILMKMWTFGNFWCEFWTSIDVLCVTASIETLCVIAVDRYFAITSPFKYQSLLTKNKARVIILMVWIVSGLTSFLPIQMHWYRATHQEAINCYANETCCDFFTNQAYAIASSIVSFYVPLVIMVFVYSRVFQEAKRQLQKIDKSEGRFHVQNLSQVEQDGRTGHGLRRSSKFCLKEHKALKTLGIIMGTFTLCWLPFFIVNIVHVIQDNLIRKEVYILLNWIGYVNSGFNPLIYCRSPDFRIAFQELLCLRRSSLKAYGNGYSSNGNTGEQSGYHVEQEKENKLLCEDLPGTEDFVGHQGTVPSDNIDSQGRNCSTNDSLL
# LANA-H2B inh = blocks KSHV LANA binding to histone H2A/H2B | hit rate 0.6% among 320,000 | Q9QR71 | cell-free LANA-H2A/H2B peptide, fluorescence polarization | inhibition, % (concentration not given with the values); in the data active = inhibition mostly above about 10%, no sharp cut-off; inactive = mostly below about 6.7%;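 note: stock transfer was 7.5 nL into about 10 µL; 0% = median of vehicle wells and 100% = median of positive control wells; one replicate is shown; the record names a cut of 25% in any replicate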
# UCH37 DUB inh = blocks the human deubiquitinase UCH37; Q9Y5K5; purified proteasome/UCH37, Ub-AMC cleavage fluorescence; inhibition, % (test concentration not listed); hit rate 0.33% among 330,000; AID 588478;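 active = mean of two replicates above 20%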;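 note: 0% = compound-free wells with enzyme and 100% = wells lacking proteasome; stock transfer was 100 nL into about 20 µL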
#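 Material: Human UCH37 enzyme supplied as purified proteasome complex | Schedule: 30 min preincubation with enzyme, 25 min cleavage at room temperature | Detection: AMC fluorescence 355/460 nm | Measure: % inhibition of Ub-AMC cleavage fluorescence | Controls: Wells without proteasome as full block, compound-free enzyme plus substrate as uninhibited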
# E coli growth = inhibitors of Escherichia coli growth. OD600, 23 h; active compounds read low. OD600 absorbance (test concentration not listed). hit rate 0.21% among 330,000. AID 1053175;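 active = OD600 absorbance below the run mean of sample wells minus 3.6 SD, in any replicate, cut at about 0.56 in these data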;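 note: stock transfer was 300 nL into about 60 µL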
# The depositor's hits bear a star; u = inconclusive; x = not tested or not shown.
SMILES,Bfl-1 A1 inh,Vif TR-FRET,HNF4A DNA FP,Beta2AR agonist,LANA-H2B inh,UCH37 DUB inh,E coli growth
COc1ccc(Cl)cc1NC(=O)COC(=O)C(CC(C)C)N1C(=O)C2CC=CCC2C1=O (stereo not drawn),0.2,-2%,6.4,-2,-8.3,-0.2,0.65
CCn1c(SCc2ccccc2)nnc1-c1cccnc1,0.3,-7%,3.1,0,1.8,0.6,0.7
COc1ccc2c(Cl)c(C(=O)N/N=C/c3ccc4c(c3)OCO4)sc2c1,0.0,-1%,-8.9,-1,1.3,x,x
COc1cc(C(=O)Nc2ccc(Br)cc2C(=O)c2cc(OC)c(OC)c(OC)c2)cc(OC)c1OC,-1.0,-2%,5.0,11,0.2,2.4,0.73
O=C1C2C3C=CC(O3)C2C(=O)N1N=C1CCCCC1 (stereo not drawn),x,2%,-0.7,-4,x,-0.3,0.64
Cc1ccc(C2=NN3C(=O)c4ccccc4C3C2)cc1 (stereo not drawn),-1.3,x,13,5,-2.3,4.2,0.64
NC(=O)c1oc2ccccc2c1NC(=O)Cc1ccccc1,-0.1,x,1.2,-4,3.2,3.5,0.71
CCc1nc(SCC(=O)Nc2cccc3ccccc23)[nH]c(=O)c1C,0.1,8%,-1.4,12,-3.3,-0.1,0.72
Cc1cc(C)c2c(=O)n(CC(=O)NCCCN3CCN(c4ccccc4F)CC3)sc2n1,1.1,-9%,x,x,3.1,6.6,0.74
CCCCCCCNC1=CC(=O)CC(c2ccco2)C1 (stereo not drawn),0.4,u,-7.0,3,2.3,4.3,0.72
O=C(Nc1nccs1)C1CCCCN1S(=O)(=O)c1ccccc1 (stereo not drawn),-1.1,x,3.2,-7,-2.9,5.5,0.69
COc1ccc(CNC(=O)COC(=O)c2sccc2C)cc1OC,1.1,x,-2.3,-2,-5.0,0.4,0.69
CC1CCCC(N2CCN(S(=O)(=O)c3ccccc3)CC2)C1 (stereo not drawn),-0.7,x,1.1,7,2.4,-0.2,0.69
Cc1ccc(C(=O)N2CCN(Cc3ccc4c(c3)OCO4)CC2)cc1S(=O)(=O)N1CCOCC1,1.0,10%,0.2,6,3.5,0.2,0.67
CC(Sc1nnc(Nc2ccccc2F)s1)C(=O)NC1CC1 (stereo not drawn),-5.7,-5%,2.6,8,-9.8,4.2,0.69
CC(C)(C)CC(=O)NC(=S)Nc1ccccc1[N+](=O)[O-],0.9,1%,8.1,-5,3.3,2.7,0.7
COc1cc(C(=O)Nc2nc(-c3ccc(F)cc3)cs2)ccc1OCC(=O)N1CCOCC1,0.4,x,1.9,10,-3.9,-24,0.67
CSCCC(=O)N1C(C)CCCC1C(=O)O (stereo not drawn),-0.3,3%,-1.9,-3,-3.5,-1.8,0.61
O=C(COC(=O)c1ccccc1C(=O)c1ccc(Cl)c([N+](=O)[O-])c1)NC1CC1,0.3,-6%,-5.3,43*,-14,1.9,0.68
O=C(NCc1ccccn1)C1(C(F)(F)F)C/C(=C\CCO)CCCO1 (stereo not drawn),-1.4,x,2.3,-2,5.5,1.9,x

# Exported with values under each structure: part of the list above.
# Results follow in this order: Bfl-1 A1 inh	Vif TR-FRET	HNF4A DNA FP	Beta2AR agonist	LANA-H2B inh	UCH37 DUB inh	E coli growth
O=C(COC(=O)c1ccccc1C(=O)c1ccc(Cl)c([N+](=O)[O-])c1)NC1CC1
  0.3	-6%	-5.3	43*	-14	1.9	0.68
O=C1C2C3C=CC(O3)C2C(=O)N1N=C1CCCCC1 (stereo not drawn)
  x	2%	-0.7	-4	x	-0.3	0.64
COc1ccc(CNC(=O)COC(=O)c2sccc2C)cc1OC
  1.1	x	-2.3	-2	-5.0	0.4	0.69
Cc1ccc(C2=NN3C(=O)c4ccccc4C3C2)cc1 (stereo not drawn)
  -1.3	x	13	5	-2.3	4.2	0.64

# New compounds follow.
SMILES,Bfl-1 A1 inh,Vif TR-FRET,HNF4A DNA FP,Beta2AR agonist,LANA-H2B inh,UCH37 DUB inh,E coli growth
Nc1ccn(Cc2ccccc2F)n1,0.8,14%,0.2,-2,0.3,0.1,0.7
NC(=O)c1ccsc1NC(=O)COC(=O)/C=C/c1ccccc1[N+](=O)[O-],-1.2,3%,-4.0,8,4.7,3.5,0.69
COc1ccccc1C1Nc2cccc3cccc(c23)N1,0.4,18%,-6.0,10,-0.3,-15,0.64
CCOC(=O)c1c(C)[nH]c(C)c1C(=O)COC(=O)c1ccc(O)cc1,-0.9,x,6.9,-1,-1.7,5.1,0.7
CC(C)CNS(=O)(=O)c1ccc(CCC(=O)NCCc2ccccc2)cc1,0.4,x,5.9,4,-1.9,1.2,0.73
COc1ccccc1CNc1nc2nc(C)c(Cl)c(=O)n2[nH]1,0.1,u,-0.7,0,4.1,2.3,0.69
CCOC(=O)C1=C(CC)NC2=C(C(=O)CCC2)C1c1ccc(OC)c(OC)c1 (stereo not drawn),1.0,14%,1.3,-11,0.0,-18,0.74
CC(NCC(=O)Nc1cc(S(=O)(=O)N2CCOCC2)ccc1N1CCOCC1)c1ccco1 (stereo not drawn),-1.3,10%,-2.6,-2,1.6,5.2,0.68
CC(=O)Oc1ccc(NC(=O)Cc2ccccc2)c(C(=O)O)c1,0.8,0%,-0.6,-9,6.8,-0.4,0.66
CC(=O)NCCNC(=O)c1ccc(Sc2ccccc2)c([N+](=O)[O-])c1,0.7,14%,-2.0,-12,-4.3,7.3,0.72
COc1ccc(CC(=O)Nc2c3c(nn2C(C)(C)C)CS(=O)(=O)C3)cc1OC,0.3,x,1.6,-1,-15,2.1,0.71
CCN(CC)CC(=O)NC1CC(C)(C)Cc2c1cnn2-c1ccc(F)cc1 (stereo not drawn),-1.1,x,-1.1,-1,-1.6,0.7,0.68
Cc1ccc(NC(=S)Nc2ccc(C(C)C)cc2)cc1S(=O)(=O)N1CCCCCC1,0.2,-3%,3.8,10,2.6,8.0,0.64
CCCC1=Nc2cc(C(=O)NCCCOCC)ccc2Sc2ccccc21,0.4,3%,-1.8,19,-3.2,2.0,0.7
CC1CCCN(C(C(=O)Nc2ccc3c(c2)OCCO3)c2ccccc2)C1 (stereo not drawn),-0.4,-5%,2.0,12,0.9,6.4,0.7
Cc1cccc(CSc2cn(CC(=O)N3CCOCC3)c3ccccc23)c1,-4.1,-2%,-6.2,-6,2.1,1.4,0.72
O=C(NCCN1CCOCC1)c1ccc(-c2ccccc2)cc1,0.3,-6%,4.2,-1,-2.9,4.8,0.67
Cn1c(=O)c2c(ncn2CC(=O)N2CCN(c3ccc([N+](=O)[O-])cc3)CC2)n(C)c1=O,0.2,0%,1.0,8,0.5,10,0.67
CCOC(=O)c1ccc(NC(=O)C2C3C=CC(C3)C2C(=O)O)cc1 (stereo not drawn),0.8,25%,1.8,2,2.3,2.1,0.76
O=C(Nc1ccccc1)c1nsnc1C(=O)Nc1ccccc1,1.3,-6%,3.3,-6,0.7,1.7,0.69
COc1ccc(C(=O)NC(=S)Nc2ccc(S(N)(=O)=O)cc2)cc1,-0.3,-2%,-4.8,2,-0.3,2.3,0.67
O=C(O)c1ccc(N/N=C2/CCCc3ccccc32)cc1,-9.9,1%,4.3,7,-6.5,x,x
CCCCN(CC)S(=O)(=O)c1ccc2c(c1)CCCN2C(C)=O,0.9,-6%,-0.7,-2,-4.3,2.5,0.72
COc1cc(/C=C/C(=O)OCC(=O)N(C)C2CCS(=O)(=O)C2)ccc1OC(F)F (stereo not drawn),-0.4,x,2.8,0,3.6,-12,0.73
Cc1cccc(NC(=O)c2ccc3nccnc3c2)n1,-1.2,x,0.8,7,-13,1.1,0.67
COc1ccc(N2CCN(CC(O)COC(C)(C)C)CC2)cc1 (stereo not drawn),0.1,4%,1.3,-7,0.6,-0.5,0.68
C/C(=C\c1ccccc1)C1NC(=O)c2c(sc3c2CCCC3)N1 (stereo not drawn),-0.6,x,4.0,-1,-0.5,1.2,0.76
Cc1nc2c(C)[n+](CC(=O)c3ccccc3)ccc2n1C,0.4,-11%,-1.1,5,-1.1,-1.8,0.7
Cc1sc2nc(CN3CCCC3)nc(NCc3ccncc3)c2c1C,-0.4,x,-1.9,-1,-2.7,0.9,0.71
O=S(=O)(Nc1ccc2c(c1)OCCO2)c1ccc(Br)s1,0.0,17%,5.7,-1,-3.9,7.4,0.68
COc1ccc(CN2C[C@H]3CCCN3c3cc(Br)ccc3S2(=O)=O)cc1,x,-1%,-2.7,44*,x,-1.7,0.75
O=C1C(=O)N(Cc2cccnc2)C(c2ccccn2)/C1=C(/O)c1ccc(F)cc1 (stereo not drawn),-0.7,2%,-0.5,2,-4.8,8.9,0.67
CCOc1c2ccc(C(=O)NCc3ccccc3OC)cc2nn1CC,-0.8,-6%,5.1,-5,-0.3,-41,0.7
COC(=O)[C@H](Cc1c[nH]c2ccccc12)NC(=O)NCc1ccc(OC)cc1,1.2,-3%,2.6,-4,5.3,3.0,0.68
COc1ccc(CNC(=O)[C@@H]2CCCN2C(=O)[C@@H]2Cc3ccccc3CN2C(=O)OC(C)(C)C)cc1,0.2,2%,0.0,-7,6.3,4.1,0.66
CC1(c2ccc3ccccc3c2)NC(=O)N(CC(=O)Nc2ncccc2O)C1=O (stereo not drawn),-0.1,5%,-1.9,-3,-2.5,2.7,0.65
O=C(C1CCCN(Cc2ccc3c(c2)OCO3)C1)N1CCCC1 (stereo not drawn),0.7,14%,1.3,-4,-1.5,2.0,0.71
Cc1ccccc1CSc1n[nH]c(NS(=O)(=O)c2ccccc2)n1,-0.3,3%,0.5,7,-4.3,4.1,0.74
CCOc1ccc(NC(=O)CSc2nnc(Cn3cnc([N+](=O)[O-])n3)n2CC)cc1,-1.0,x,-1.8,-7,-13,0.9,0.72
CCOC(=O)C1CCN(C(=O)c2ccc(OCC(=O)N3CCOCC3)c(OC)c2)CC1,0.1,0%,4.8,-1,1.8,0.2,0.66
O=[N+]([O-])c1ccc(OCc2cccc(COc3ccc([N+](=O)[O-])cc3)n2)cc1,1.2,x,-1.0,1,-0.7,4.8,0.76
COc1ccccc1OCc1csc(N)n1,-0.1,-3%,-5.5,-5,1.3,3.2,0.71
CC1=C(C)CC(C(=O)NNC(=O)c2cccc(Cl)c2)C(C(=O)O)C1 (stereo not drawn),0.8,-11%,0.9,3,2.2,0.4,0.61
Cc1ccnc(SCC(=O)c2ccc(Br)s2)n1,2.5,11%,5.8,1,5.7,1.5,0.66
Cc1cc(C)nc(SCc2ccc(C(=O)N/N=C/c3ccccc3C(=O)O)cc2)n1,0.2,17%,1.6,-6,1.8,x,x
C[C@@]12CC[C@H]3OC(=O)C=C3C1CC[C@@]13CC(CCC12)[C@](CO)(O[C@H]1O[C@H](CO)[C@@H](O)[C@H](O)[C@H]1O)C3 (stereo partly drawn),0.2,x,-1.0,1,1.3,0.5,0.7
Cc1ccc(-c2nnn(CC(=O)N(c3ccccc3F)C(C(=O)NCC3CCCO3)c3c[nH]c4ccccc34)n2)cc1 (stereo not drawn),-0.1,-2%,2.9,2,-3.6,0.2,0.7
Cc1nc(N[C@@H](Cc2c[nH]c3ccccc23)C(=O)O)c2oc3ccccc3c2n1,-0.5,1%,x,x,18*,6.6,0.66
COc1cc(NC(=O)c2ccnc(N)c2)cc(C(=O)Nc2cccc(C(F)(F)F)c2)c1,-0.4,x,3.1,8,1.1,x,x
COc1ccc2cnnc(SCC(=O)Nc3ccc(C(C)=O)cc3)c2c1OC,0.1,1%,-1.8,-18,1.4,-10,0.61
Cc1nc(Cl)c(C(=O)NC(C)(C)C)c(C)c1Cl,0.2,x,0.9,-6,5.9,1.8,0.67

# From PubChem
